Compound activity from PubChem.
eIF4H FP inh = inhibitors of RNA binding by human eIF4H; eIF4H fluorescence polarization binding assay; AID 2012; inhibition, % at 35 µM; 290,000 compounds, 0.94% hits;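 active = 50% or more with normal probe brightness, or confirmed in later tests; about a fifth of its hits are not listed in these tables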;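 note: calls also rest on retests at 20 µM and on dose response follow-up; 0% = protein and probe with vehicle and 100% = probe without protein; strong numbers were not always called active; many hits fall short of the cut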
CSC inhib = cancer stem cell inhibition; cancer stem cell-like cells viability, luminescence; inhibition, % at 7.5 µM; 300,000 compounds, 1.1% hits; AID 2717;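 active = mean at 75% or more and at least half the replicates too; tested in HMLE shEcad cells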;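 note: 0% = median of negative and 100% = median of positive control wells; the first replicate is given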
Rce1 inhib = inhibitors of yeast Ras-converting enzyme; yeast membranes, quenched prenylated peptide cleavage fluorescence; calls only; 290,000 compounds, 0.27% hits; AID 2563;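 active = fall in fluorescence gain of 50% or more versus controls, with final raw signal at or below 3038400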;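 note: plate controls were neutral control wells for no effect and wells lacking membranes for full effect; tested at 10 µM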
Target sequence (Q03530 whole entry, looked up): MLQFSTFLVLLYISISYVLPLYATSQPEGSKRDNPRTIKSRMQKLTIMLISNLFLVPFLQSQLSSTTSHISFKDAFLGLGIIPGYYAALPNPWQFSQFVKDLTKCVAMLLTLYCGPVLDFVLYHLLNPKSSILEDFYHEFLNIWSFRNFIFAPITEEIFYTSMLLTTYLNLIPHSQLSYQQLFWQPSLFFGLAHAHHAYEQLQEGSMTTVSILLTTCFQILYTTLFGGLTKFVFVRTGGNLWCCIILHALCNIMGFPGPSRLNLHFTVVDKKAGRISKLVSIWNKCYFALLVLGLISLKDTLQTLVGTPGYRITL
Env fusion inh = inhibitors of HIV Env-mediated cell fusion; 360,000 compounds, 1.1% hits; inhibition, % at 12.3 µM; HeLa-JRFL Env/CEM21 cell fusion, luciferase;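 active = mean replicate inhibition score of at least 50 and every replicate individually at or above 50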;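 note: 0% = plate neutral controls and 100% = maraviroc near 300 nM; one replicate is shown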
UUG fidelity = yeast start codon fidelity modulation; activity score, % at 18.7 µM; S. cerevisiae UUG-firefly luciferase reporter, luminescence/redox ratio; 350,000 compounds, 0.13% hits;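 active = replicate mean at a twofold rise or more, about +100% in these data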;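 note: firefly luciferase made from a UUG start codon reports start codon fidelity; reporter light over untreated wells divided by growth signal over untreated wells; some hits fall short of that in this replicate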
PABP polyA inh = blocks human PABP binding to poly(A) RNA | 290,000 compounds, 1% hits | fluorescence polarization | inhibition, % at 35 µM | P11940;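 active = 50% or more with normal probe brightness, or confirmed in later tests; about a fifth of its hits are not listed in these tables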;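 note: calls also rest on retests at 20 µM and on dose response follow-up; controls were probe without protein and protein plus probe with vehicle; some compounds called inactive have numbers as strong as hits; many hits fall short of the cut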
Target sequence (P11940 whole entry, looked up): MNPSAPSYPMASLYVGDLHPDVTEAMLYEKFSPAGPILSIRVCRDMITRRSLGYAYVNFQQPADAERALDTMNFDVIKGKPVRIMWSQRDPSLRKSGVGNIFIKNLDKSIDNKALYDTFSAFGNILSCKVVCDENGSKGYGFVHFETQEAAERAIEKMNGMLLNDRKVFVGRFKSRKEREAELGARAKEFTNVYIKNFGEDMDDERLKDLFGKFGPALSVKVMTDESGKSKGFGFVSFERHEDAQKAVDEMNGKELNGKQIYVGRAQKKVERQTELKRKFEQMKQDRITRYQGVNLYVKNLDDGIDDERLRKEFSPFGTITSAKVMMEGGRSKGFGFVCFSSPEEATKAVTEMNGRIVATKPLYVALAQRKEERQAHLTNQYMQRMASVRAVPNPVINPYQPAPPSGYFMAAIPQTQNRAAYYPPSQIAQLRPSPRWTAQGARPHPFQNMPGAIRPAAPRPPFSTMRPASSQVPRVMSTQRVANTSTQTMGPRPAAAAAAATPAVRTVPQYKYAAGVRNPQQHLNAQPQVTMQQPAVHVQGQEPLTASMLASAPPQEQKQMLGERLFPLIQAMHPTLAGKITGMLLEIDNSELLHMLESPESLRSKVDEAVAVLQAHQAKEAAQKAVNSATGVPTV
MT1-MMP act inh = MT1-MMP (human) activation inhibition. GFP/RFP ratio change, % at 20 µM. 360,000 compounds, 0.061% hits. HT1080 RFP-PRO-GFP cells, GFP/RFP ratio fluorescence, overnight; percent of plate control window, DMSO zero. P50281;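 active = GFP/RFP ratio change of at least 30% with cell ATP level not reduced by more than half and red fluorescence within 50% of control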; note: strong numbers were not always called active
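system = RFP-PRO-GFP reporter HT1080 cells | dosing = 20 µM single dose, 1% DMSO | timing = overnight cell settling, then overnight compound exposure, 37 °C, 5% CO2 | read-out basis = GFP/RFP fluorescence ratio | controls = DMSO and RFP-L50D-GFP cell wells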
eIF4H FP inh retest = recorded beside eIF4H FP inh, whose call it bears; inhibition, %; compound at 20 µM; confirmation average;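 mean of two retest wells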
PABP polyA inh retest = second read-out of PABP polyA inh, no call of its own (marks repeat the call); inhibition, %; compound at 20 µM; confirmation repeats;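 mean of two retest wells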
MT1-MMP act inh RFP = further read-out of MT1-MMP act inh, marked with its call; RFP signal change, %; measured here: RFP expression control read;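 0 = vehicle wells; hits needed this value within 50% of zero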
Active calls of the source: *; i = inactive; x = not tested or not shown.

SMILES	eIF4H FP inh	CSC inhib	Rce1 inhib	Env fusion inh	UUG fidelity	PABP polyA inh	MT1-MMP act inh	MT1-MMP act inh RFP	others
O=C(Nc1ccccc1N1CCOCC1)C1=NN(c2c(F)c(F)cc(F)c2F)C(=O)CC1	x	15	x	3	-12	x	-4	1
CC(=O)Nc1ccc(S(=O)(=O)NCCC(=O)NNC(=O)c2ccncc2)cc1	x	8	x	-3	x	x	2	0
COc1cccc(NC(=O)N2CCCC2C(=O)NCc2ccco2)c1 (stereo not drawn)	0	-14	i	-13	-7	11	2	8
Cc1ccnc(N2C(=O)c3ccc([N+](=O)[O-])cc3C2=O)c1	-6	-8	i	-15	-15	48	-1	-1
O=C1Nc2ccccc2O/C1=C\c1ccccc1Br	-8	-7	i	-25	-8	6	-4	-2
CC(=O)N1c2ccc(S(=O)(=O)NCC3CCC(C(=O)Nc4cccc(C)n4)CC3)cc2CC1C (stereo not drawn)	-9	-10	i	5	-11	5	1	-28
O=C(CSc1nnc(-c2ccco2)n1Cc1ccco1)NCc1ccccc1	-3	-4	i	-49	-15	0	0	-1
COc1ccc(NC(=O)Nc2ccccc2C(=O)N2CCCC2)cc1	-7	-17	i	x	x	-2	-1	6
COC(C[C@H]1O[C@H]1[C@H](O)COCc1ccccc1)OC	-2	x	i	-1	-12	1	8	8
CC(C)(C)n1nnnc1C(c1ccncc1)N1CCN(C2CCCCC2)CC1 (stereo not drawn)	0	-12	i	x	2	-7	2	0
CCCn1nc(C(=O)NC2CC2)c2ccccc2c1=O	x	x	x	4	-12	x	-1	2
O=C(NCCCN1CCCC1)Nc1ccccc1[N+](=O)[O-]	3	6	i	7	-10	-3	-1	1
c1ccc(CNc2ccc(N3CCOCC3)cc2)cc1	x	-10	x	x	-26	x	10	8
c1ccc(CNn2c(N3CCOCC3)nc3ccccc32)cc1	-2	x	x	x	-15	11	1	3
COc1ccc2[nH]c3c(c2c1)CCN1C(=O)C(CC(=O)NCCN2CCOCC2)C[C@H](C(=O)N(C(C)C)C(C)C)[C@@]31C (stereo partly drawn)	x	x	x	-15	-32	x	2	0
CCOC(=O)N1N=C(c2ccc(C)cc2)CC1(O)C(F)(F)F (stereo not drawn)	-1	-3	x	x	-30	9	1	4
NC(=O)CN1CCN(c2cccc(Cl)c2)CC1	3	-9	i	3	-18	3	8	7
Cc1ccc(-n2c(Cc3ccccc3)nnc2SCC(=O)NNC(=O)Cc2ccccc2)cc1	-9	-11	i	-41	-10	-11	5	3
COc1ccc2ccccc2c1-c1sc(Nc2ccccc2)n[n+]1-c1ccc(F)cc1	-6	52	i	-24	-23	-11	-6	-16
CCOc1ccc(-n2cccc2C=O)cc1	-6	-5	i	11	x	0	-1	8
CCC(C)N(C(=O)CSc1nncn1C)C1CCS(=O)(=O)C1 (stereo not drawn)	x	-17	x	-21	-15	x	-1	3
COc1ccc(S(=O)(=O)N2CCC(C(=O)NCC3CCCO3)CC2)cc1C (stereo not drawn)	2	-17	i	x	-2	5	-3	-2
CC(=O)c1cccc(NS(=O)(=O)c2ccc(-c3cc(C)no3)s2)c1	-6	-1	i	5	2	6	-2	-21
CCOc1ccc(NC(=O)Cc2ccc(S(=O)(=O)N3CCOCC3)s2)cc1OCC	18	1	i	x	-17	6	-3	-3
CCN(CC)CC(C)CNC(=O)CN1C(=O)CSc2ccc(S(=O)(=O)N3CCOCC3)cc21 (stereo not drawn)	15	21	i	-11	-8	-13	5	2
Cc1cccc(S(=O)(=O)c2c(N)n(/N=C/c3ccccc3)c3nc4ccccc4nc23)c1	-9	14	i	5	-6	12	-4	-5
COC(=O)c1ccc(CN(c2ccccn2)S(=O)(=O)c2ccccc2)cc1	2	-4	x	19	-16	2	7	1
CCC(C)NC(=O)CNC(=S)N(Cc1ccccc1F)C1CCCCC1 (stereo not drawn)	-7	1	i	8	x	-10	-3	2
CCn1ncc(-c2csc(N)n2)c1C	1	-15	i	-10	x	-14	4	3
CC(C)Cc1csc(NC(=O)c2ccc(F)cc2)c1C(=O)O	1	121*	i	-2	x	-10	5	5
CC(=O)c1ccc(N2CCN(C(=O)c3ccc(S(=O)(=O)NCc4ccco4)cc3)CC2)cc1	x	-11	x	-10	-12	x	6	-13
COc1ccc(S(=O)(=O)N2CCOC2CNC(=O)C(=O)NCc2ccncc2)cc1C (stereo not drawn)	-2	7	i	-10	-15	5	-2	2
COc1ccccc1Nc1cc(C(=O)NCCCN2CCOCC2)c2ccccc2n1	1	-1	i	1	-10	0	1	5
O=c1cc(C(F)(F)F)nc(-c2ccccc2OC(F)(F)F)[nH]1	-3	2	i	-18	-5	4	2	5
O=C(NNC(=O)c1ccccc1OCc1ccc(F)cc1)c1ccncc1	x	-12	i	x	x	x	-3	2
CCN(CC)S(=O)(=O)c1cccc(NC(=O)c2ccc(S(=O)(=O)N3CCCC3)cc2)c1	x	x	x	2	-20	x	11	-19
C/C=C/C(=O)N1CC2(CC(c3cccc(NC(=O)COc4ccc(Cl)cc4)c3)=NO2)C[C@@H]1C(N)=O (stereo partly drawn)	0	1	i	-17	-20	6	7	-1
CCOC(=O)C1=NN(c2ccc(Cl)cc2)C(=O)C1	-13	-2	i	-59	x	-1	0	2
Nc1ccc2nc(-c3ccccc3)sc2c1	-6	29	i	-278	-65	-12	-6	-5
C=CCn1c(SCc2ccc(C(=O)O)cc2)nc2sc(C)c(C)c2c1=O	0	4	i	3	x	4	-5	-2
COc1ccccc1C(c1nnnn1Cc1ccccc1)N1CCN(C2CCCC2)CC1 (stereo not drawn)	-11	-4	i	-74	-3	2	-4	2
Cc1cc2nc(SCCOC(=O)Nc3ccc(Cl)cc3)nc(C)c2cc1C	-6	-8	i	x	x	0	6	-1
COc1cc(C2/C(=C(\O)c3ccc4c(c3)CC(C)O4)C(=O)C(=O)N2CCCn2ccnc2)ccc1O (stereo not drawn)	11	-9	i	x	-5	5	-5	0
CCCc1ccc(C#N)c(SC2CC(=O)N(c3ccc(OC)cc3)C2=O)n1 (stereo not drawn)	-6	3	i	-3	-26	-7	32*	28*
O=C(NCCCN1CCOCC1)C(=O)NCc1ccccc1	-3	10	i	8	x	-2	1	5
Cc1cc(N=Cc2c(O)ccc3ccccc23)no1	18	-7	i	-64	-12	-1	-2	6
Cc1cc(Oc2ccc(C)c(Cl)c2)nc(SCC(=O)c2ccccc2)n1	-9	-1	i	21	-8	4	-13	-5
Cc1cc(=O)oc2cc(NC(=S)NCc3ccccn3)ccc12	3	3	i	-5	-31	63	4	0	eIF4H FP inh retest=-17;PABP polyA inh retest=5
COc1ccccc1/C=C(\C#N)C(=O)c1cccn1C	-10	x	i	-51	x	-6	4	3
CCOCCc1nnc(N)s1	12	-5	i	x	-22	1	-3	2
CCC(C)NC(=O)C(Cc1ccccc1)NS(=O)(=O)c1cccc2nsnc12 (stereo not drawn)	-2	10	i	-103	-14	-2	-4	1
COCCN(C(=O)COC(=O)C1CCC(C(C)(C)C)CC1)c1c(N)n(Cc2ccccc2)c(=O)[nH]c1=O (stereo not drawn)	x	-4	i	5	-5	x	-1	-8
O=C(CCNC(=O)c1ccc([N+](=O)[O-])cc1)NCc1ccccc1	x	x	x	-10	-15	x	2	2
COc1cc(C(=O)NCCN2C(=O)S/C(=C\c3cccs3)C2=O)cc(OC)c1OC	11	8	i	3	-3	-6	6	-7
O=C(CSc1nnnn1C1CCCCC1)NCc1cccc(C(=O)O)c1	-1	-1	i	-9	-1	2	-8	-4
CCOC(=O)c1c(C)oc2cc(Br)c(OC(=O)N3CCOCC3)cc12	6	-10	i	x	12	-9	3	-6
COc1ccc(C(=O)NCC2CCCCC2)cc1S(=O)(=O)N1CCCC1	x	-2	x	0	-5	x	2	0
O=S1(=O)CC/C(=N/Nc2ccc(C(F)(F)F)cn2)c2cc(F)ccc21	5	18	i	-15	x	31	-3	-3
CC(=O)NCCc1nc2ccccc2n1CCOc1ccccc1	-8	-30	i	12	-12	1	-2	-4
COC(=O)[C@H](Cc1ccccc1)N(C)S(=O)(=O)c1cccc(S(=O)(=O)N(C)[C@@H](Cc2ccccc2)C(=O)OC)c1	-9	5	i	9	1	10	9	-11
Oc1ccccc1/C=N/Nc1cccc2cccnc12	-3	19	i	-254	-33	-8	5	-1
CCCCOC(=O)Sc1nc2ccccc2o1	-6	9	i	-39	-13	4	5	4
COc1cc(NC(=O)CSc2nc3ccccc3cc2Cc2ccccc2)cc(OC)c1	-2	-2	i	43	-16	-15	-3	-3

Molecules above that have a halogen (15):
SMILES	eIF4H FP inh	CSC inhib	Rce1 inhib	Env fusion inh	UUG fidelity	PABP polyA inh	MT1-MMP act inh	MT1-MMP act inh RFP	others
O=C(Nc1ccccc1N1CCOCC1)C1=NN(c2c(F)c(F)cc(F)c2F)C(=O)CC1	x	15	x	3	-12	x	-4	1
O=C1Nc2ccccc2O/C1=C\c1ccccc1Br	-8	-7	i	-25	-8	6	-4	-2
CCOC(=O)N1N=C(c2ccc(C)cc2)CC1(O)C(F)(F)F (stereo not drawn)	-1	-3	x	x	-30	9	1	4
NC(=O)CN1CCN(c2cccc(Cl)c2)CC1	3	-9	i	3	-18	3	8	7
COc1ccc2ccccc2c1-c1sc(Nc2ccccc2)n[n+]1-c1ccc(F)cc1	-6	52	i	-24	-23	-11	-6	-16
CCC(C)NC(=O)CNC(=S)N(Cc1ccccc1F)C1CCCCC1 (stereo not drawn)	-7	1	i	8	x	-10	-3	2
CC(C)Cc1csc(NC(=O)c2ccc(F)cc2)c1C(=O)O	1	121*	i	-2	x	-10	5	5
O=c1cc(C(F)(F)F)nc(-c2ccccc2OC(F)(F)F)[nH]1	-3	2	i	-18	-5	4	2	5
O=C(NNC(=O)c1ccccc1OCc1ccc(F)cc1)c1ccncc1	x	-12	i	x	x	x	-3	2
C/C=C/C(=O)N1CC2(CC(c3cccc(NC(=O)COc4ccc(Cl)cc4)c3)=NO2)C[C@@H]1C(N)=O (stereo partly drawn)	0	1	i	-17	-20	6	7	-1
CCOC(=O)C1=NN(c2ccc(Cl)cc2)C(=O)C1	-13	-2	i	-59	x	-1	0	2
Cc1cc2nc(SCCOC(=O)Nc3ccc(Cl)cc3)nc(C)c2cc1C	-6	-8	i	x	x	0	6	-1
Cc1cc(Oc2ccc(C)c(Cl)c2)nc(SCC(=O)c2ccccc2)n1	-9	-1	i	21	-8	4	-13	-5
CCOC(=O)c1c(C)oc2cc(Br)c(OC(=O)N3CCOCC3)cc12	6	-10	i	x	12	-9	3	-6
O=S1(=O)CC/C(=N/Nc2ccc(C(F)(F)F)cn2)c2cc(F)ccc21	5	18	i	-15	x	31	-3	-3

These rows are one share of the data, so the mix of outcomes need not match the whole.
